Assay outcomes (PubChem BioAssay)
Autofluor counter: compound fluorescence in toxin protease inhibitor counterscreen. compound autofluorescence counterscreen, microsphere flow cytometry; stronger effect = higher value. fluorescence intensity (no concentration beside the values). actives 3.1% (n = 360,000);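 active = at least 3 SD above the mean of all compounds, about 16000 in these data; inconclusive = too few beads counted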;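 also: 100 nL of 1 mM stock went into each well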
BJeLR viability: BJeLR cell viability loss | BJeLR (HRASV12) viability, CellTiter-Glo ATP luminescence, 48 h; reference of the scale not given here | inhibition, % (test concentration not listed) | actives 0.17% (n = 300,000) | AID 1554;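 active = replicate mean above 50%; inconclusive = above 50% but judged a plate artefact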;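 also: 50 nL library stock added to about 25 µL; numbers are from one replicate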
Mtb hypoxia rep: inhibitors of hypoxia-regulated fluorescent reporter in Mycobacterium tuberculosis. M. tuberculosis hypoxia-regulated fluorescent reporter, fluorescence. fluorescence inhibition, % (test concentration not listed). actives 0.1% (n = 300,000). AID 1159583;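 active = 35 to 45% if threefold the growth effect, above 45% if 1.5-fold the growth effect; inactive = the rest, general growth blockers included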;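 also: wells of about 50 µL received 100 nL stock; 0% = vehicle wells and 100% = reference inhibitor wells; whole bacteria with a GFP reporter of the hypoxia response; strong numbers were not always called active; many hits fall short of the cut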
PrP UTR inh: inhibition of PrP 5' UTR reporter expression. AID 488862. inhibition, % (concentration not given with the values). actives 0.35% (n = 340,000). cell-based PrP 5' UTR mRNA reporter, plate reader;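 active = every replicate at 50% or more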;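 also: 0 = median of the neutral control wells; tested in H4 reporter cells; numbers are from one replicate; inactives centre near -14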
Sa RN4220 lethal: kills Staphylococcus aureus RN4220. S. aureus RN4220 growth, OD600, 16 h. inhibition, % (concentration not given with the values). actives 0.33% (n = 330,000);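 active = z-score of -3 or lower and OD600 up to 0.18 on both plates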;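 also: plate controls were untreated cells for no effect and reference antibiotic for full effect; stock transfer was 100 nL into about 80 µL; one replicate is shown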
Sa ugtP lethal: compounds lethal to S. aureus RN4220 ugtP deletion mutant; actives 0.54% (n = 330,000); growth inhibition, % (no concentration beside the values); OD600 growth, 16 h; some inactives read as strong as hits;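 active = z-score under -3 and OD600 up to 0.15 on both plates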;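 also: plate controls were untreated wells for no effect and antibiotic for full effect; wells of about 80 µL received 100 nL stock; the first replicate is given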
Mtb hypoxia rep growth: also measured in Mtb hypoxia rep; calls as there; growth inhibition, %; measured here: M. tuberculosis growth (absorbance);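 0% = vehicle and 100% = reference antibiotic; read after six days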
* = called active by the depositor; ? = inconclusive; . = no result given. Compounds were not picked by outcome; overall some 4% were active at least once.

SMILES	Autofluor counter	BJeLR viability	Mtb hypoxia rep	Mtb hypoxia rep growth	PrP UTR inh	Sa RN4220 lethal	Sa ugtP lethal
CCOc1cnc(C(=O)NNC(=O)c2ccccc2Br)o1	4804	4.0	-2.1	3.9	-6.4	3.6	10.4
Cc1cccc2cc(C(c3nnnn3C(C)(C)C)N(Cc3ccco3)CC3CCCO3)c(=O)[nH]c12 (configuration not stated)	21568*	0.6	0.2	2.3	-26.0	19.1	-11.0
Cc1ccccc1NC(=O)c1ccc(OCC(=O)Nc2ccccc2F)cc1	4730	-1.8	13.3	5.0	-16.3	-2.1	-3.5
O=C(CSc1nccc(=O)[nH]1)Nc1ccccc1Sc1ccccc1	5044	10.5	4.3	-2.5	-20.5	11.7	-4.4
COc1ccccc1NS(=O)(=O)c1cc(C(=O)NCC(c2ccco2)N2CCCCC2)ccc1C (configuration not stated)	4733	4.3	5.8	-3.4	-16.1	6.5	13.8
Cc1cc(=O)oc2cc(NC(=S)NCc3cccnc3)ccc12	4418	-5.9	-8.4	7.9	6.6	-0.8	5.8
Cc1ccsc1C=NN1CCOCC1	.	.	6.8	4.2	.	3.4	-2.4
COc1cccc(CC(=O)OCC(=O)c2cc(OC)c(OC)c(OC)c2)c1	7667	.	3.6	3.3	-20.9	4.9	8.3
COc1ccc(S(=O)(=O)Cc2ccc(C(=O)NCC(OC)OC)o2)cc1	3985	-6.0	-3.1	5.1	-16.5	-0.7	4.7
O=C(N/N=C/c1cccnc1)c1cccc(NC(=O)c2cccc(Br)c2)c1	5491	-5.1	.	.	-11.2	.	.
Cc1ccc(S(=O)(=O)N2CCN(CC(=O)NCC3(N4CCOCC4)CCCCC3)CC2)cc1	.	.	1.8	-3.4	-15.5	5.3	7.8
CC(C)NC(=O)c1ccc(NC(=O)CC2SC(N3CCCC3)=NC2=O)cc1 (configuration not stated)	9069	.	11.2	1.0	-11.9	2.0	1.5
CCc1nnc(NC(=O)CN2C(=O)c3ccccc3S2(=O)=O)s1	5302	0.1	3.6	-3.4	-22.5	1.5	2.1
Cc1cccc(-n2ncc3c(NCc4cccnc4)ncnc32)c1	4439	-1.2	9.8	14.1	-76.0	0.4	9.6
COc1ccc(Cc2nc3ccc(C(=O)NC(C)c4cnn(C)c4)cc3o2)cc1 (configuration not stated)	4635	0.9	1.1	2.9	2.8	-1.5	4.6
O=C1CC(Sc2nnc(-c3ccccc3)o2)C(=O)N1c1ccccc1 (configuration not stated)	3328	7.5	8.8	1.7	-22.1	10.4	2.4
CC1CCCN(CC(=O)Nc2cccc([N+](=O)[O-])c2)C1 (configuration not stated)	10182	9.4	-4.8	2.9	-26.4	5.1	5.9
Cc1nn(C)c(C(=O)N/N=C/c2cccc3ccccc23)c1Cl	2060	-3.4	.	.	-28.8	.	.
C(=C\c1ccccc1)/CSc1nnc(-c2cccnc2)o1	10258	-0.3	6.2	3.3	-26.5	-0.7	4.2
O=C(CSc1ccc2c(c1)OCCO2)Nc1cccnc1	4603	4.3	8.5	-0.6	-37.6	6.9	13.0
COc1ccccc1C(=O)NC(=O)COC(=O)C1CCC1	4602	9.1	12.0	1.0	-4.3	3.2	3.6
CCc1ccc(N2CCN(CCNC(=O)Nc3ccc(OC)cc3)CC2)cc1	3589	-1.9	9.6	-3.0	-6.0	2.1	4.9
C[C@]12C=CC(=O)C=C1CCC1C2C(O)C[C@@]2(C)C1CC[C@]2(O)C(=O)COC(=O)CCC(=O)O (some centres not stated)	.	.	-2.6	1.7	.	10.4	-2.4
Cc1c(C(=O)N2CCCC(C)C2)sc2ncnc(N3CCCCC3C)c12 (configuration not stated)	2587	-11.8	-3.8	7.3	-18.3	0.3	2.2
CC(O)(CS(=O)(=O)c1cccc(C(F)(F)F)c1)C(=O)Nc1ccc(C(F)(F)F)cc1 (configuration not stated)	16098	7.5	-1.1	3.4	-19.4	-1.1	-20.7
Cc1c(NC(=S)NN=Cc2cccc(O)c2)c(=O)n(-c2ccccc2)n1C	.	.	2.8	7.9	.	0.5	-7.1
O=C(O)CSc1nnc(-c2ccncc2)n1C1CCCCC1	19539*	-1.9	6.9	12.8	-22.6	3.3	2.0
CCOC(=O)C1CCN(Cc2cn[nH]c2-c2ccccc2)CC1	20102*	-15.5	2.7	4.4	-27.7	-0.1	-1.7
C=CCn1cnc2c(nnn2-c2ccc(OC)c(OC)c2)c1=O	4713	-17.5	14.7	10.3	-26.7	15.2	10.3
CCOC(=O)C1=C(C)C(c2ccc(OC)cc2)NC(=O)N1 (configuration not stated)	4416	-1.3	2.8	11.2	-10.3	3.0	14.6
Cc1ccc(OCC(=O)OCc2nc3scc(-c4ccccc4)c3c(=O)[nH]2)cc1C	5535	-0.3	2.0	0.5	-26.6	2.6	10.3
Cc1ccc(C(=O)Nc2ccccc2-c2ccccc2)cc1S(=O)(=O)Nc1ccccc1	4398	.	11.7	12.3	-15.6	-13.3	-3.3
CC(C)C(=O)N1CCC2(CC1)Oc1ccc(Cl)cc1C(=O)C21CC(c2cccnc2)=NO1 (configuration not stated)	3085	-0.6	13.8	7.2	-2.1	3.5	3.3
COC(=O)c1ccc(CNC(=O)c2cc3ccccc3oc2=O)cc1	5288	0.0	6.8	4.4	-25.7	5.9	7.2
CCOCCCN1CC(C(=O)NCCc2ccccc2)CC1=O (configuration not stated)	10302	-10.4	9.4	8.3	-17.2	2.5	5.5
CNC(=O)CSc1nc2nc(C)cc(C)n2n1	2830	1.9	7.4	10.9	-32.6	3.6	8.0
COc1ccc(NC(=O)CC(C)(C)C)c([N+](=O)[O-])c1	9941	0.9	7.9	5.0	-54.9	2.9	2.4
O=C1NN(c2ccccc2)C(=O)C2C1C1C=CC2C12CC2 (configuration not stated)	1909	-3.3	12.2	8.4	1.3	3.0	3.2
CCC(C)NC(=O)Nc1ccc(C)cc1C (configuration not stated)	2290	-0.8	19.4	9.5	-22.7	2.4	4.3
CC(OC(=O)/C=C/c1cccs1)C(=O)Nc1ccc(S(N)(=O)=O)cc1 (configuration not stated)	4562	0.2	-2.0	0.7	-19.2	4.0	1.5
S=C1NCCOCCOCCOCCOCCN1	8222	-5.5	14.9	5.1	-13.5	3.7	5.5
CCC(=O)Nc1cccc(C2=NOC3(C2)C[C@H](C(N)=O)N(C(=O)Cc2ccc([N+](=O)[O-])cc2)C3)c1 (some centres not stated)	4249	0.0	.	.	-14.1	.	.
CCn1c(Cl)c(C=O)sc1=NS(=O)(=O)c1ccccc1	.	.	12.5	3.9	.	37.1	24.7
CCC(C)NC(=O)CSc1nc2cc3c(cc2c(=O)n1Cc1ccco1)OCO3 (configuration not stated)	3710	-5.8	-4.7	11.2	-23.5	2.7	7.1
CCOC(=O)c1c(NC(=S)Nc2ccc(OC)cc2)sc2c1CCCCC2	2088	-1.3	7.1	-1.2	-6.2	3.9	1.1
COc1ccc2[nH]c3c(N4CCC(O)(c5cccc(C(F)(F)F)c5)CC4)ncnc3c2c1	3365	-2.8	6.5	5.1	-17.7	3.9	19.2
CN1CCN(Cc2nc3ccccc3c(=O)n2Cc2nc(-c3ccccc3F)cs2)CC1	2202	-2.1	18.2	2.3	-35.7	5.5	0.2
CC(NC(=O)c1ccccc1Cl)C(=O)OCC(=O)N1CC2(C)CC1CC(C)(C)C2 (configuration not stated)	.	.	-3.7	-12.2	.	10.2	1.3
CCCCCC(=O)N/N=C/c1ccc(N(C)C)cc1	2169	-17.1	.	.	-49.5	.	.
CCCCC(=O)NC(=S)Nc1cccc(C(=O)O)c1	3963	2.4	8.0	9.8	-34.7	1.8	5.1
CCOC(=O)C1CCCN(C(=O)C2CCN(S(=O)(=O)c3cnc[nH]3)CC2)C1 (configuration not stated)	3580	-1.4	.	.	-14.3	4.4	8.9
O=C(O)CC/C(=C\c1ccc(Cl)c([N+](=O)[O-])c1)c1nc2ccccc2s1	8167	12.4	0.9	-1.7	-30.7	19.3	-30.0
O=C(CSc1ccc(Cl)cc1)NN=Cc1ccc([N+](=O)[O-])o1	.	.	-1.6	-2.0	.	46.0	99.8*
CCOC(=O)c1c(CSC(=N)N)n(C)c2cc(Br)c(OC(C)=O)cc12	6046	-1.3	15.2	8.0	-37.1	2.8	8.3
CC(=O)N1c2ccc(S(=O)(=O)N(C)CC(=O)NC(C)c3ccccc3)cc2CC1C (configuration not stated)	4052	-10.7	-1.7	-0.8	-12.5	2.0	6.7
O=C(/C(=C(\[O-])c1ccccc1)[n+]1ccc2ccccc2c1)c1ccc([N+](=O)[O-])cc1	2512	-2.8	.	.	-16.7	.	.
CCc1ccc(-c2cc(C)no2)cc1S(=O)(=O)N1CCOc2ccccc21	6490	3.6	2.8	-0.4	-4.0	-0.4	0.0
CCOC(=O)c1c(C)[nH]c(C2=NNC(=Nc3ccc(OCC)cc3)SC2)c1C	2289	.	10.4	8.4	-6.5	-1.3	-4.0
Cc1ccc([C@@H]2CC=C(C(=O)O)[C@H](c3cccc(Cl)c3)N2S(=O)(=O)c2ccc(C)cc2)cc1	4159	.	4.1	4.7	-11.2	-15.1	48.4
COc1ccc(NC(=O)CSc2nnc(-c3cccnc3)o2)c(OC)c1	?	-2.0	-3.8	-3.0	-4.1	3.8	6.9

Filtered by structure: those above with fluorine (four)
SMILES	Autofluor counter	BJeLR viability	Mtb hypoxia rep	Mtb hypoxia rep growth	PrP UTR inh	Sa RN4220 lethal	Sa ugtP lethal
Cc1ccccc1NC(=O)c1ccc(OCC(=O)Nc2ccccc2F)cc1	4730	-1.8	13.3	5.0	-16.3	-2.1	-3.5
CC(O)(CS(=O)(=O)c1cccc(C(F)(F)F)c1)C(=O)Nc1ccc(C(F)(F)F)cc1 (configuration not stated)	16098	7.5	-1.1	3.4	-19.4	-1.1	-20.7
COc1ccc2[nH]c3c(N4CCC(O)(c5cccc(C(F)(F)F)c5)CC4)ncnc3c2c1	3365	-2.8	6.5	5.1	-17.7	3.9	19.2
CN1CCN(Cc2nc3ccccc3c(=O)n2Cc2nc(-c3ccccc3F)cs2)CC1	2202	-2.1	18.2	2.3	-35.7	5.5	0.2

More entries:
SMILES	Autofluor counter	BJeLR viability	Mtb hypoxia rep	Mtb hypoxia rep growth	PrP UTR inh	Sa RN4220 lethal	Sa ugtP lethal
COc1cc(C(=O)NC2CC(C)(C)NC(C)(C)C2)cc(OC)c1OC	4676	0.6	3.6	4.5	-25.9	5.0	-2.3
O=C(NN1C(=O)/C(=C\c2cccnc2)SC1=S)c1ccco1	4629	-17.4	-2.5	1.5	-7.0	5.3	3.2
Cc1ccc(-c2csc(NC(=O)c3c(C)noc3C)n2)cc1	6835	.	8.6	-12.1	-7.6	7.3	17.6
COc1cc(C)c(Cl)cc1S(=O)(=O)n1ccnc1C	7223	1.6	3.8	0.1	-15.6	-1.4	5.0
Cc1ccc(OCCCOc2cccc3cccnc23)cc1C	2631	-7.9	.	.	-18.2	4.8	27.0
COC(=O)C1=C(c2ccccc2)C[C@@H]2CC[C@H]1N2C(=O)NCc1ccc(C(F)(F)F)cc1	4015	2.7	.	.	-14.7	.	.
O=C(Nc1ccc2ccccc2c1)c1ccc(Br)o1	6170	0.5	2.1	12.6	-142.4	2.5	-0.9
Cc1nnc(-c2cnn(C)c2N)n1CCCN(C)C	4473	-27.6	7.9	2.5	-4.1	11.5	4.9
Cc1nc(-c2ccc(NC(=O)Cc3ccccc3)cc2)cs1	3409	-6.1	18.8	9.0	.	4.4	8.8
Cc1cc(C(=O)NN=Cc2ccc(Br)o2)n[nH]1	.	.	0.6	-4.6	.	0.0	-2.2
COc1ccc(CN(CC(=O)NCc2ccco2)C(=O)CCC(=O)Nc2nccs2)cc1	2112	-2.0	.	.	-11.5	1.6	8.2
CC(C)CN(C(=O)c1cccc(S(=O)(=O)N2CCN(C)CC2)c1)C1CCS(=O)(=O)C1 (configuration not stated)	?	-1.1	2.7	-3.9	-1.7	1.2	1.8
CC1CCCCC1NC(=O)c1ccncc1 (configuration not stated)	?	0.1	2.8	-3.4	0.6	1.4	8.0
C=CCOc1ccccc1C=NO	.	.	5.4	-2.5	.	4.7	4.3

Reformatted: two of the compounds above.
Values in the order – Autofluor counter, BJeLR viability, Mtb hypoxia rep, Mtb hypoxia rep growth, PrP UTR inh, Sa RN4220 lethal, Sa ugtP lethal
> Cc1nnc(-c2cnn(C)c2N)n1CCCN(C)C
    4473, -27.6, 7.9, 2.5, -4.1, 11.5, 4.9
> Cc1nc(-c2ccc(NC(=O)Cc3ccccc3)cc2)cs1
    3409, -6.1, 18.8, 9.0, ., 4.4, 8.8
